High-throughput results (PubChem BioAssay)
ID4 binder = binders of human ID4 protein, primary screen, biochemical, small molecule microarray, single point | DNA-binding protein inhibitor ID-4 (Homo sapiens), P47928 | Flag-ID4 binding, fluorescence F/B | calls only | hit rate 1.2% among 31,000;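 active means spot signal over background at p below 0.07 in all four prints; compounds were printed on slides so no solution concentration is given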;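 further: a binder raises fluorescence above local background on the spot; about 2 pmol printed per array spot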
Target sequence (P47928 whole entry, looked up): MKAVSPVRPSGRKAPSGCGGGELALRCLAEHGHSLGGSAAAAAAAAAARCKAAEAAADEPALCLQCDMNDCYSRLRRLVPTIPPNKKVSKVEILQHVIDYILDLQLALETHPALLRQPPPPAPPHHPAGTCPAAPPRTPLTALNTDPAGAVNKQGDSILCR
Calls only; i = inactive.

molecule | ID4 binder
COC(=O)c1ccc(C(=O)OC)c(NC(=O)c2ccccc2N(C)S(C)(=O)=O)c1 | i
CN(CC(=O)Nc1cccc(Cl)c1)S(=O)(=O)c1ccc2ccccc2c1 | i
O=C(Nc1ccc(S(=O)(=O)Nc2nccs2)cc1)c1cccnc1 | i
CC1(C)NC(=O)N(CCCCOc2ccccc2[N+](=O)[O-])C1=O | i
CC1=C(C(=O)Nc2cccnc2)C(c2cccnc2)n2ncnc2N1 (centres undefined) | i
Cc1ccc(S(=O)(=O)NC2(C(F)(F)F)C(=O)N(CC3CCCO3)C3=C2C(=O)CC(C)(C)C3)cc1 (centres undefined) | i
O=C(C[C@@H]1C=C[C@@H](NC(=O)C2CCC2)[C@@H](CO)O1)NCc1ccccc1Cl | i
Cc1ccc(N(C(C)C(=O)Nc2ccc(I)cc2C)S(C)(=O)=O)cc1C (centres undefined) | i
CN(C)CC(=O)Nc1ccc2c(c1)[C@@H]1C[C@@H](CC(=O)NCc3cc(F)ccc3F)O[C@@H](CO)[C@@H]1O2 | i
Cc1cc(C)cc(NC(=O)C2CC(=O)n3ncnc3N2)c1 (centres undefined) | i

More records follow.
molecule | ID4 binder
O=S(=O)(c1ccccc1)c1nc(-c2cccs2)oc1NCc1ccco1 | i
O=C(C[C@H]1C=C[C@H](NC(=O)CC2CC2)[C@@H](CO)O1)NCc1ccc(-c2ccccc2)cc1 | i
C[C@@H]1CN([C@@H](C)CO)S(=O)(=O)c2ccc(C3=CCCCC3)cc2O[C@H]1CN(C)CC1CCCC1 | i
CN1CCCCC1CCN1c2ccccc2Sc2ccc(S(C)=O)cc21 (centres undefined) | i
C=CCNC(=O)[C@H]1[C@@H]2C(=O)O[C@@H](c3ccccc3)[C@@H](c3ccccc3)N2[C@@H](c2ccc(OCCO)cc2)[C@]12C(=O)Nc1ccc(C#CC3=CCCCC3)cc12 | i
CN1CCN(C(=O)C[C@@H]2CC[C@H](NC(=O)Nc3ccccc3F)[C@H](CO)O2)CC1 | i
Cc1cc(C)cc(OCC(=O)Nc2cc(-c3nc4ccc(C)cc4o3)ccc2C)c1 | i
COc1ccc(C#Cc2cnc3c(c2)C(=O)N([C@@H](C)CO)C[C@@H](C)[C@H](CN(C)C(=O)c2ccccc2F)O3)cc1 | i
COc1ccc(N(CC(=O)Nc2ccc(F)c(F)c2)S(C)(=O)=O)cc1Cl | i
C[C@H](CO)N1C[C@H](C)[C@@H](CN(C)Cc2ccncc2)OCc2ccccc2-c2ccccc2C1=O | i

Of the compounds above, these have four or more nitrogen atoms.
molecule | ID4 binder
O=C(Nc1ccc(S(=O)(=O)Nc2nccs2)cc1)c1cccnc1 | i
CC1=C(C(=O)Nc2cccnc2)C(c2cccnc2)n2ncnc2N1 (centres undefined) | i
Cc1cc(C)cc(NC(=O)C2CC(=O)n3ncnc3N2)c1 (centres undefined) | i
CN1CCN(C(=O)C[C@@H]2CC[C@H](NC(=O)Nc3ccccc3F)[C@H](CO)O2)CC1 | i

The results go on.
molecule | ID4 binder
O=C(CSc1nnc(-c2cccc(Br)c2)n1-c1ccccc1)Nc1ccccc1[N+](=O)[O-] | i
COc1ccc(OC)c(NC(=O)c2ccc(Cl)c(S(=O)(=O)Nc3ccc(C)cc3C)c2)c1 | i
COc1ccc(NC(=O)C2=C(C)NC(=S)NC2c2cccc([N+](=O)[O-])c2)c(OC)c1 (centres undefined) | i
Cc1cc(=O)oc2cc(OC(C)C(=O)NCC3CCCO3)ccc12 (centres undefined) | i
CCC[C@@H]1C[C@@H](C(=O)N[C@@H](C2O[C@H](SC)[C@H](O)[C@@H](O)[C@H]2O)[C@H](C)Cl)N(C)C1 (some centres undefined) | i
CC(C)CC#Cc1ccc2c(c1)O[C@H](CN(C)C(=O)c1ccncc1)[C@@H](C)CN([C@H](C)CO)S2(=O)=O | i
CS(=O)(=O)N(CC(=O)Nc1ccc(I)cc1)Cc1ccccc1 | i
COc1cc(OC)cc(-c2nnc(SCC(=O)Nc3ccc(F)cc3)o2)c1 | i
O=C(CS(=O)c1ccc(C(F)(F)F)cc1[N+](=O)[O-])Oc1ccc(C2CCCCC2)cc1 (centres undefined) | i
CO[C@@H]1CN(C)C(=O)c2cc(NC(=O)C3CCOCC3)ccc2OC[C@@H](C)N(C)C[C@H]1C | i

Further compounds follow:
molecule | ID4 binder
O=C(NCc1ccco1)c1ccccc1NC(=O)C1COc2ccccc2O1 (centres undefined) | i
COC(=O)C[C@H]1CC[C@H](NS(=O)(=O)c2ccc(OC)cc2)[C@H](CO)O1 | i
O=C(CSc1nnc(NC(=O)c2ccc(Cl)c(Cl)c2)s1)Nc1ccc(F)c(F)c1F | i
Cc1[nH]c2ccccc2c1C(=O)CSc1ncnc2sc(C)c(C)c12 | i
C[C@@H]1CN([C@H](C)CO)C(=O)c2cc(-c3cccc(F)c3)cnc2O[C@@H]1CN(C)C(=O)C1CC1 | i
C[C@@H]1CN([C@@H](C)CO)C(=O)c2cc(C#Cc3cccnc3)cnc2O[C@@H]1CN(C)Cc1ccccc1 | i
CC(C)Nc1nc(SCC(N)=O)nc(N2CCOCC2)n1 | i
COc1ccc(NC(=O)CSc2nc3ccccc3c(=O)[nH]2)cc1Cl | i
COc1ccc2c(c1)C(C)CC(C)(C)N2C(=O)CSc1nc2ccccc2[nH]1 (centres undefined) | i
C[C@@H]1CN([C@@H](C)CO)C(=O)Cc2cc(NC(=O)C3CC3)ccc2O[C@@H]1CN(C)CC1CC1 | i

Following part:
molecule | ID4 binder
C[C@H](CO)N1C[C@H](C)[C@H](CN(C)C)Oc2cc(/C=C/c3ccccc3)ccc2S1(=O)=O | i
O=C(CSc1ncn(-c2ccccc2)n1)Nc1ccc(F)c(Cl)c1 | i
c1ccc(-c2nn3c(Cn4cnc5ccccc54)nnc3s2)nc1 | i
O=C(C[C@@H]1C=C[C@H](NC(=O)CC2CC2)[C@H](CO)O1)NCc1ccc(Cl)cc1 | i
C[C@H](CO)N1C[C@H](C)[C@H](CN(C)C(=O)c2ccncc2)OCc2ccccc2-c2ccccc2C1=O | i
C[C@H](CO)N1C[C@H](C)[C@H](CN(C)C(=O)NC2CCCCC2)Oc2ccc(N(C)C)cc2CC1=O | i
C[C@@H]1CN([C@@H](C)CO)S(=O)(=O)c2ccc(-c3ccc(C#N)cc3)cc2O[C@H]1CN(C)C(=O)C1CC1 | i
CO[C@@H]1CN(C)C(=O)c2ccc(NC(=O)c3ccccn3)cc2OC[C@@H](C)N(CC2CC2)C[C@H]1C | i
C[C@H]1CN([C@@H](C)CO)C(=O)c2cc(Br)cnc2O[C@@H]1CN(C)C(=O)C1CC1 | i
COc1ccc(NC(=O)CSc2nc(C)cc(C)n2)cc1 | i

Following part
molecule | ID4 binder
CCOc1ccc2ccccc2c1C(=O)NCc1ccco1 | i
CC(C)c1ccccc1NC(=O)CSc1nnnn1-c1ccccc1 | i
O=C(CSc1ncnc2sc3c(c12)CCC3)N1CCOCC1 | i
O=S(=O)(N1CCOCC1)n1nnc2ccccc21 | i
Cc1ccc(S(=O)(=O)N(C)CC(=O)Nc2ccccc2Cl)cc1 | i
CSc1ccccc1NC(=O)CN(C)S(=O)(=O)c1ccc(C)cc1 | i
COc1ccccc1-c1cnc2c(c1)C(=O)N([C@@H](C)CO)C[C@H](C)[C@H](CN(C)C(=O)c1ccncc1)O2 | i
CS(=O)(=O)N(CC(=O)Nc1ccc(F)cc1F)c1ccc(Br)cc1 | i
CC(=O)Nc1ccc(NC(=O)C(NC(=O)c2ccco2)C(C)C)cc1 (centres undefined) | i
CN1CCN(C(=O)C[C@H]2CC[C@@H](NC(=O)c3ccc4c(c3)OCO4)[C@@H](CO)O2)CC1 | i

Further entries.
molecule | ID4 binder
COc1ccc(-c2ccc(CCC(=O)O)n2-c2cc(Cl)ccc2O)cc1 | i
C[C@@H]1CN([C@H](C)CO)C(=O)c2cc(-c3ccc(F)cc3)cnc2O[C@H]1CN(C)C(=O)C1CCC1 | i
CCCN(C)C[C@H]1Oc2cc(-c3ccc(C)cc3)ccc2S(=O)(=O)N([C@H](C)CO)C[C@@H]1C | i
Cc1sc2ncn(CC(=O)NCc3ccco3)c(=O)c2c1-c1ccccc1 | i
C/C=C/c1ccc2c(c1)O[C@@H](CN(C)S(=O)(=O)c1ccc(C)cc1)[C@@H](C)CN([C@@H](C)CO)S2(=O)=O | i
COc1ccccc1-c1cnc2c(c1)C(=O)N([C@@H](C)CO)C[C@@H](C)[C@H](CN(C)C)O2 | i
CCCn1c(NCc2cccc(OC)c2O)nc2ccccc21 | i
C[C@H]1CN([C@@H](C)CO)S(=O)(=O)c2ccc(C#CCN(C)C)cc2O[C@H]1CN(C)Cc1ccccc1 | i
C[C@H]1CN([C@@H](C)CO)C(=O)c2cc(C#Cc3ccccc3F)cnc2O[C@H]1CN(C)C(=O)C1CCOCC1 | i
COC(=O)c1nnc(Nc2ccc(Oc3ccccc3)cc2)c2ccccc12 | i

Next compounds.
molecule | ID4 binder
C[C@H]1CN([C@@H](C)CO)C(=O)CCCn2nncc2CO[C@H]1CN(C)CC1CCCC1 | i
C[C@H](CO)N1C[C@H](C)[C@@H](CN(C)CC2CCCC2)Oc2ncc(-c3ccc(C#N)cc3)cc2C1=O | i
C[C@H]1CN([C@@H](C)CO)C(=O)c2cccc(NC(=O)C3CCCCC3)c2O[C@H]1CN(C)C | i
Cc1oc(-c2ccc(Cl)cc2)cc1COC(=O)Nc1ccccc1 | i
COCC(=O)Nc1ccc2c(c1)[C@@H]1C[C@H](CC(=O)NC3CCCC3)O[C@@H](CO)[C@@H]1O2 | i
O=C(C[C@@H]1CC[C@H](NC(=O)Nc2ccc(F)cc2)[C@@H](CO)O1)NCc1cccc(F)c1 | i
CCCc1cn(CC[C@H]2CC[C@@H](NC(=O)C3CCCCC3)[C@@H](CO)O2)nn1 | i
C/C=C/c1ccc2c(c1)O[C@@H](CN(C)Cc1cccc(F)c1)[C@H](C)CN([C@@H](C)CO)S2(=O)=O | i
COC(=O)C[C@@H]1C=C[C@@H](N)[C@H](CO)O1 | i
COc1ccc(NC(=O)CCN2C(=O)c3ccccc3C2=O)c([N+](=O)[O-])c1 | i

Continuation:
molecule | ID4 binder
C[C@H]1CN([C@@H](C)CO)C(=O)c2c(c3ccccc3n2C)-c2ccccc2CO[C@@H]1CN(C)CC1CC1 | i
COCC#Cc1ccc2c(c1)O[C@@H](CN(C)Cc1ccccc1)[C@H](C)CN([C@H](C)CO)S2(=O)=O | i
Cc1ccc(OCC(=O)Nc2ccc3oc(-c4ccc(F)cc4)nc3c2)c(C)c1 | i
COc1cc(NC(=O)Cc2cccc3ccccc23)c(C(=O)O)cc1OC | i
COc1ccc(C(=O)Nc2ccccc2C(=O)NCc2cccnc2)cc1 | i
Cc1ccc(S(=O)(=O)NCC(=O)O)c(C)c1 | i
Cn1nnc(NC(=O)CSc2nnnn2-c2ccc(F)cc2)n1 | i
CC(C)N(Cc1nc(-c2ccccc2Cl)no1)S(=O)(=O)c1ccc([N+](=O)[O-])cc1 | i
Cc1cc(CNC(=S)Nc2cccc([N+](=O)[O-])c2)nn1C | i
CCCC(=O)Nc1ccc2c(c1)OC[C@@H](C)N(CCc1ccccc1)C[C@@H](C)[C@H](OC)CN(C)C2=O | i

Next section:
molecule | ID4 binder
CNC[C@@H]1Oc2cc(C#CCC(C)C)ccc2S(=O)(=O)N([C@H](C)CO)C[C@H]1C | i
O=C1C(=O)N(CCN2CCOCC2)C(c2ccccn2)C1C(=O)c1cccs1 (centres undefined) | i
C[C@@H]1CN([C@H](C)CO)C(=O)c2cc(C#CCN(C)C)cnc2O[C@@H]1CN(C)C(=O)c1ccc(F)cc1 | i
C[C@@H]1CN([C@H](C)CO)C(=O)c2c(c3ccccc3n2C)-c2ccccc2CO[C@H]1CN(C)CC1CC1 | i
Cc1cc(C)c(NC(=O)CN(c2cccc3ccccc23)S(C)(=O)=O)c(C)c1 | i
C[C@@H](NC(=O)C[C@H]1C=C[C@H](NC(=O)C2CC2)[C@H](CO)O1)c1ccccc1 | i
COc1cccc(S(=O)(=O)N[C@H]2C=C[C@H](CC(=O)NC3Cc4ccccc4C3)O[C@H]2CO)c1 | i
CCCN(C)C[C@H]1Oc2ncc(C#Cc3ccc(F)cc3)cc2C(=O)N([C@@H](C)CO)C[C@H]1C | i
O=C(O)CN(CC(=O)O)S(=O)(=O)c1ccc(Cl)cc1 | i
COC(=O)CN(c1ccccc1)S(=O)(=O)c1ccc(F)cc1 | i

4 of the compounds above, field by field.
C[C@@H]1CN([C@H](C)CO)C(=O)c2cc(C#CCN(C)C)cnc2O[C@@H]1CN(C)C(=O)c1ccc(F)cc1
  ID4 binder: i
C[C@@H](NC(=O)C[C@H]1C=C[C@H](NC(=O)C2CC2)[C@H](CO)O1)c1ccccc1
  ID4 binder: i
Cc1cc(C)c(NC(=O)CN(c2cccc3ccccc23)S(C)(=O)=O)c(C)c1
  ID4 binder: i
COc1cccc(S(=O)(=O)N[C@H]2C=C[C@H](CC(=O)NC3Cc4ccccc4C3)O[C@H]2CO)c1
  ID4 binder: i

Next part:
molecule | ID4 binder
C[C@H](O)C#Cc1cnc2c(c1)C(=O)N([C@@H](C)CO)C[C@H](C)[C@@H](CN(C)C(=O)c1ccccc1F)O2 | i
O=C(CSc1nc2ccccc2c(=O)[nH]1)Nc1ccc(Br)cc1F | i
COc1ccccc1-c1cnc2c(c1)C(=O)N([C@@H](C)CO)C[C@@H](C)[C@@H](CN(C)C)O2 | i
CS(=O)(=O)N(CC(=O)Nc1ccccc1C(F)(F)F)c1ccc2c(c1)OCCO2 | i
C[C@@H]1CN([C@H](C)CO)C(=O)Cc2cc(NC(=O)C3CC3)ccc2O[C@H]1CN(C)CC1CC1 | i

This is a subset (hit frequency here may not be typical).
